# Assay outcomes deposited in PubChem by National Center for Advancing Translational Sciences (NCATS).
# VACV Venus inh: vaccinia inhibition (Venus reporter); Vaccinia virus Venus reporter expression, fluorescence; Potency, µM (top dose mostly 36.5 µM), for inactives: at the top dose activity change, negative = inhibition, usual class: inhibitors; 0.46% of 330,000 active; active means well fitted inhibition curve with a large enough effect; inconclusive means small, poorly fitted or top-dose-only effect; inactive means no such curve, though single readings can be large or run the other way; tested in A549 cells; also: nearly all actives have a fitted effect of over 30% in size; inactives centre near -10
# Vaccinia mCherry: vaccinia inhibition (mCherry reporter). Vaccinia virus mCherry reporter infection, fluorescence; about a quarter of the inactives have no number. 0.63% of 310,000 active. Potency, µM (doses to about 36.5 µM), inactives show at the top dose activity change, negative = inhibition, most hits filed as inhibitors; active = well fitted inhibition curve with a large enough effect; inconclusive = small, poorly fitted or top-dose-only effect; inactive = no such curve, though single readings can be large or run the other way; tested in A549 cells; also: nearly all actives have a fitted effect of over 35% in size; inactives centre near -10
# Numbers without * were called inactive; i = inactive; ? = inconclusive; / = no result given; [ ] = remark or other dose. % is scaled to controls: 0 for no effect and ±100 for the full control effect; potency is read from the fitted curve at half-maximal effect.
SMILES,VACV Venus inh,Vaccinia mCherry
c1ccc(COn2c(-c3ccccc3)nc3c2CCc2nonc2-3)cc1,-18%,-4%
CC(CCCc1ccccc1)NC(=O)c1nn(-c2ccc(Cl)cc2)nc1CO (configuration not stated),-10%,-6%
CC(=O)Oc1ccc(N2C(=O)C3C4C=CC(O4)C3C2=O)cc1 (configuration not stated),2%,-10%
Cc1cccc(N(CC(=O)NCCSCc2ccccc2)S(C)(=O)=O)c1C,?,-8%
CN(CC(O)COc1ccc2ccccc2c1)C1CCCCC1 (configuration not stated),-18%,-26%
c1ccc2c(c1)CCCC2NC1=NCCC1 (configuration not stated),-4%,-5%
Fc1ccc(-c2cc(-c3ccc(F)cc3)c3c(n2)-c2cc(F)ccc2OC3)cc1,-7%,-8%
O=C(NCc1ccc(Cl)cc1)C1CCN(S(=O)(=O)c2ccc3c(c2)CCCN3C(=O)C2CCC2)CC1,-20%,-25%
Cc1noc(COc2ccccc2OCC(O)CNC(C)(C)C)n1 (configuration not stated),13%,/
CCc1nc(Nc2ccc(N3CCN(C(C)=O)CC3)cc2)c2oc3ccccc3c2n1,-24%,-29%
COc1ccc(C(=O)NCCSc2c[nH]c3ccccc23)cc1OC,-8%,-10%
CC(=O)OCC(=O)[C@@]1(O)CC[C@H]2[C@@H]3C[C@H](C)C4=CC(=O)C=C[C@]4(C)[C@H]3[C@@H](O)C[C@@]21C,-14%,-6%
O=c1c(Cc2ccc(Cl)cc2)c(O)ccn1Cc1ccccc1,-18%,/
CON(C)c1nc(NCC(C)C)nc(OCC#N)n1,-10%,-14%
N#Cc1ccccc1NC(=O)COC(=O)COc1ccccc1[N+](=O)[O-],-8%,i
CCn1cc(C2=NOC(C(=O)O)C2)c(C)n1 (configuration not stated),-5%,-8%
CCN1CCN(c2oc(-c3ccc(COc4ccc(OC)cc4)o3)nc2C#N)CC1,-4%,-2%
COCCOc1ccc(C(F)(F)F)cc1NC(=O)c1ccc(F)cc1,-22%,-18%
Cc1ccc(C(=O)NCCNC(=O)c2ccco2)cc1C,-2%,-9%
CCN(c1ccccc1)S(=O)(=O)c1ccc(OC)c(NC(=O)c2cccs2)c1,-5%,-8%
COC(=O)c1c(-c2ccccc2)c(-c2ccccc2)nn(C)c1=O,-8%,-3%
COc1cc(OC)cc(-c2nnc(SCC(=O)N(C(C)C)C(C)C)o2)c1,-23%,-12%
Cc1cccnc1NC(=O)c1ccc(Cl)c(S(=O)(=O)N2CCCCC2)c1,-18%,-24%
COc1ccc(S(=O)NC2CCCCC2)c(OC)c1C (configuration not stated),?,/
COc1ccc(NC(=O)c2ccc3c(c2)N(Cc2cccc(Cl)c2)C(=O)c2ccccc2S3(=O)=O)cc1Cl,-4%,-7%
CCOC(=O)c1c(C)[nH]c(C(=O)N(C)Cc2cccc(OC)c2OC)c1C,-18%,-5%
COc1ccc(C(=O)NCCN2CCOCC2)c(OC)c1OC,-6%,1%
Cc1nc(-c2ccc(Cl)cc2)sc1C1(C)CC(c2c(Cl)cccc2Cl)=NO1 (configuration not stated),-10%,i
CC(C)CCNC(=O)c1cccc(S(=O)(=O)N2CCc3ccccc32)c1,-30%,?
CN1CCN(S(=O)(=O)c2cccc(C(=O)Oc3ccccc3Cl)c2)CC1,-12%,-9%
CCNc1nc(NCC)nc(OCCNS(=O)(=O)c2ccccc2)n1,0%,2%
CCCCNc1nc(Oc2ccc(OCC(N)=O)nn2)nc(N2CCOCC2)n1,-6%,-4%
N#Cc1ccccc1OCC(=O)OCC(=O)NC1CCCCCC1,-7%,-9%
O=S(=O)(NCCc1cn2ccccc2n1)c1ccc(F)c(C(F)(F)F)c1,-19%,?
Cc1ccc2[nH]c3c(=O)n(N)c(=O)[nH]c3c2c1,-10%[7.34 µM],-1%[7.34 µM]
CCCN(CCC)c1cc(C)nc2nc(-c3ccc(Cl)cc3)nn12,2%,-11%

# Already shown: 2 of the compounds above.
SMILES,VACV Venus inh,Vaccinia mCherry
COc1ccc(NC(=O)c2ccc3c(c2)N(Cc2cccc(Cl)c2)C(=O)c2ccccc2S3(=O)=O)cc1Cl,-4%,-7%
CCOC(=O)c1c(C)[nH]c(C(=O)N(C)Cc2cccc(OC)c2OC)c1C,-18%,-5%

# (cont.)
SMILES,VACV Venus inh,Vaccinia mCherry
Nc1nc(-c2ccco2)nn1C(=O)c1ccc([N+](=O)[O-])cc1,-10%,i
CCC(=O)NC(NC(=S)Nc1c(C)n(C)n(-c2ccccc2)c1=O)C(Cl)(Cl)Cl (configuration not stated),-6%,-20%
Fc1ccc2nc(Nc3nc4c(F)cc(F)cc4s3)sc2c1,-12%,-10%
Cc1c(CN2CCC(n3nccc3NC(=O)C3CCOC3)CC2)[nH]c2ccccc12 (configuration not stated),-2%,i
COc1ccc(N2CC(C(=O)Nc3ccc(S(=O)(=O)Nc4nccs4)cc3)CC2=O)cc1 (configuration not stated),-13%,-5%
CCOC(=O)C1CCCN(C(=O)C2CCN(C(=O)Nc3ccccc3)CC2)C1 (configuration not stated),-8%,-13%
Cc1cc(NC(=O)CCC(=O)N(CC(C)C)C(C(=O)NC(C)(C)C)c2ccccc2Cl)no1 (configuration not stated),-7%,-11%
COc1ccccc1C(=O)NCC(=O)N/N=C(\C)Cc1ccccc1,-11%,-21%
CC(=O)Nc1ccccc1C(=O)OCc1ccc(F)cc1,2%,0%
CCCN(CCC)C(=O)C1CCCN(S(=O)(=O)c2ccc3c(c2)oc(=O)n3C)C1 (configuration not stated),-10%,1%
c1ccc2c(Nc3ccc4c(c3)OCCO4)c3c(nc2c1)CCCC3,?,?
CCOc1ccc(S(=O)(=O)Nc2nc3ccccc3nc2-n2ccc(=NC(=O)c3ccccc3C)cc2)cc1,-12%,-23%
CCOc1ccccc1Oc1c(C)oc2cc(OC(=O)c3ccco3)ccc2c1=O,-6%,-10%
CCOc1ccc(/C=N/NC(=O)c2ccccc2NC(=O)c2ccc(OC)cc2)cc1,-30%,-15%
O=C(O)CC(NS(=O)(=O)c1ccc2c(c1)OCCO2)c1ccccc1[N+](=O)[O-] (configuration not stated),21%,i
CCc1c(C(=O)Nc2ccccc2)c(C)[nH]c(=S)c1C#N,15%,i
CC(=O)c1cccc(NC(=O)N2CCCC2C(=O)Nc2cc(C)ccc2C)c1 (configuration not stated),-10%,-12%
O=C(Nc1ccccc1)C(=O)Nc1ccccn1,-5%,i
CS(=O)(=O)N(CC(=O)NCCSCc1ccco1)c1ccc(Cl)cc1,-4%,i
COc1ccc(NC(C)=O)cc1NC(=O)CN1CCN(c2ccc(F)cc2)CC1,-9%,2%
O=C(NNC(=O)c1ccccc1[N+](=O)[O-])c1csc(N2CCOCC2)n1,-1%,-9%
CCOc1ccc2[nH]c(=O)c(CN(Cc3cccs3)Cc3nnnn3C(C)(C)C)cc2c1,-18%,-18%
Cc1noc(C)c1S(=O)(=O)N1CCCCC1c1cc(C(=O)Nc2cccc3c2CCCC3)no1 (configuration not stated),-16%,11%
CCOc1ccccc1NC(=O)CN1C(=O)C(=O)c2ccccc21,-1%,-8%

# Three entries out of the list, arranged by length of the SMILES, falling:
SMILES,VACV Venus inh,Vaccinia mCherry
CCN(c1ccccc1)S(=O)(=O)c1ccc(OC)c(NC(=O)c2cccs2)c1,-5%,-8%
CCCCNc1nc(Oc2ccc(OCC(N)=O)nn2)nc(N2CCOCC2)n1,-6%,-4%
N#Cc1ccccc1OCC(=O)OCC(=O)NC1CCCCCC1,-7%,-9%

# Retrieved one by one from the entries so far, seven records:
SMILES,VACV Venus inh,Vaccinia mCherry
CCN1CCN(c2oc(-c3ccc(COc4ccc(OC)cc4)o3)nc2C#N)CC1,-4%,-2%
Cc1noc(C)c1S(=O)(=O)N1CCCCC1c1cc(C(=O)Nc2cccc3c2CCCC3)no1 (configuration not stated),-16%,11%
O=C(Nc1ccccc1)C(=O)Nc1ccccn1,-5%,i
CCOc1ccccc1Oc1c(C)oc2cc(OC(=O)c3ccco3)ccc2c1=O,-6%,-10%
CCc1c(C(=O)Nc2ccccc2)c(C)[nH]c(=S)c1C#N,15%,i
CCOC(=O)c1c(C)[nH]c(C(=O)N(C)Cc2cccc(OC)c2OC)c1C,-18%,-5%
Fc1ccc2nc(Nc3nc4c(F)cc(F)cc4s3)sc2c1,-12%,-10%

# Other structures:
SMILES,VACV Venus inh,Vaccinia mCherry
O=C(CSc1c2c(nc3cc(Cl)ccc13)CCCC2)NCCN1CCOCC1,-13%,i
Cc1cc(O)c(/C=N/c2ccccn2)c(=O)o1,3%,-9%[1.46 µM]
CCOc1ccc(-n2nc3ccc(NC(=O)COc4ccc(OC)cc4)cc3n2)cc1,4%,1%
CC1(C)Cc2c(c(-c3ccco3)nc3n[nH]c(N)c23)CO1,-23%,/
Cc1ccc(CN2CCN(Cc3cn(C(C)C)c4ccccc34)CC2CCO)o1 (configuration not stated),-11%,-16%
COc1ccc(CC(=O)Nc2nc(-c3cccnc3)cs2)cc1,-4%,-11%
COC(=O)c1ccc(C)c(NC(=O)CCSc2ccc(Cl)cc2)c1,-28%,?
CC(C)(C)OC(=O)N1CCC(c2c(C(=O)NCc3cccc(Cl)c3)cnn2-c2ccc(F)cc2)CC1,?,-8%
CCS(=O)(=O)N1CCCC(C(=O)NCCc2ccc(C)cc2)C1 (configuration not stated),-7%,-15%
CC(=O)N[C@@H](CSC/C=C(\C)CC/C=C(\C)CC/C=C(\C)CCC=C(C)C)C(=O)O,-16%[3.33 µM],-14%
CCc1nccn1CCC(=O)NC1CC(C)(C)Cc2c1cnn2-c1cccc(F)c1 (configuration not stated),-15%,i
CO[C@@H]1CN(C)C(=O)c2cc(NC(=O)Nc3ccc(Cl)cc3)ccc2OC[C@H](C)NC[C@H]1C,-12%,11%
CN(Cc1nccs1)C(=O)c1ccc(OC2CCN(Cc3ccccn3)CC2)cc1,-13%,-18%
COc1ccc(NC(=S)N2CCN(c3ccc([N+](=O)[O-])cc3)CC2)cc1OC,-3%,1%
O=C(/C=C/c1cnc2ccccc2n1)NC12CC3CC(CC(C3)C1)C2,-19%,-19%
COCC(C)N1C(=O)Cc2c1nc(N)c1c(N)nc(N3CCN(c4ccccc4F)CC3)c(C#N)c21 (configuration not stated),-2%,?
CC1CN(C(=O)Cn2c(C(F)(F)F)nc3ccccc32)CC(C)O1 (configuration not stated),0%,-12%
Cc1cccc(-n2c(SCC(=O)N3CC(=O)Nc4ccccc43)nc3ccccc3c2=O)c1,-23%,-24%
Cc1ccc(OCc2nc3ccccc3n2C(C(=O)Nc2c(C)cccc2C)C2CC2)cc1 (configuration not stated),?,-27%
C#CCn1c(COc2ccccc2C)nc2ccccc21,3%,-2%
c1ccc2c(c1)CC1(CCCC1)N=C2N1CCOCC1,9%,-5%
Cc1ccc(Cc2c(-c3ccco3)nc3c(C)cc(Br)cn23)cc1,5%,-2%
COc1ccc(N(C(=O)/C=C\C(=O)Nc2ccc(C)cc2)C(C(=O)NCc2ccco2)c2ccc(C)cc2)cc1 (configuration not stated),-18%,-13%
COc1ccc(NC(=O)CCc2nc3ccccc3[nH]2)cc1,8%,-2%
COCCCN(C(=S)Nc1cccc(Cl)c1)C(C)c1ccncc1 (configuration not stated),-7%,-17%
COCCCN(C(=O)c1ccc(N2CCCC2=O)cc1)c1c(N)n(Cc2ccccc2)c(=O)[nH]c1=O,-12%,i
CC(=O)Nc1ccc(NC(=O)C(C)OC(=O)C2CCCCC2)cc1 (configuration not stated),-13%,0%
COC(C/C=C/C(=O)COCc1ccccc1)OC,-12%,-11%
Cc1ccc(N2C(=O)c3ccc(C(=O)O)cc3C2=O)c(C)c1,-8%,-10%
COc1cc(-c2noc(-c3ccccc3C(=O)NCc3ccco3)n2)cc(OC)c1OC,-10%,/
O=C(O)[C@@H]1C[C@@H](C(=O)O)N1,-1%,-13%
CCOC(=O)c1c(NC(=O)CSc2n[nH]c(CNc3ccccc3)n2)sc(C)c1C,?,?
Cc1ccc(Cn2nc3n(c2=O)-c2cc(Cl)ccc2OC3)cc1,1%,-4%
COc1ccc(N2C(=O)CSC2c2cccc(F)c2)cc1 (configuration not stated),-14%,-3%
Cc1ccsc1C(=O)N1CCC1(C)C(=O)NCc1cccc2ccccc12 (configuration not stated),-4%,i
C[C@H](CO)N1C[C@H](C)[C@@H](CN(C)C(=O)Nc2ccc(C(F)(F)F)cc2)Oc2c(NS(=O)(=O)c3cn(C)cn3)cccc2C1=O,-10%,-17%

# Some values from above.
# COc1ccc(N2C(=O)CSC2c2cccc(F)c2)cc1 (configuration not stated) in Vaccinia mCherry: -3%
# Cc1ccsc1C(=O)N1CCC1(C)C(=O)NCc1cccc2ccccc12 (configuration not stated) in VACV Venus inh: -4%

# (continued)
SMILES,VACV Venus inh,Vaccinia mCherry
Cc1ccc(S(=O)(=O)NCCC(=O)N2CCCC(C)C2)cc1 (configuration not stated),-10%,i
CC(NC(=O)C(C(=O)c1cccc([N+](=O)[O-])c1)n1cc(Cl)ccc1=O)c1ccccc1 (configuration not stated),-1%,-5%
Cc1cc(C)cc(C(=O)/C=C2\NC(=O)CS2)c1,2%,/
CN(CC(O)CN)CC(O)CN1CCCCC1 (configuration not stated),-1%,-11%
COc1ccc(OC)c(C2CC(=O)N(c3cccc(C)c3)C3=C2C(=O)OC3)c1 (configuration not stated),-11%,4%
